# HSV augment = increases HSV replication in cells; maximum fold increase; actives 0.005% (n = 220,000); HSV replication augmentation in cells, fold increase; AID 1956;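 active = peak rise of 1.5-fold or more in the series; inconclusive = self-fluorescent or not available for retest; tested in PC3 cells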;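 also: first round at 10 µM; read as green reporter fluorescence; hits show the peak of a series up to 25 µM; 1 = signal of infected wells without compound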
# Insulin prom inh = TRM-6 insulin promoter activity inhibition; TRM-6 cells (human fetal islet line), insulin promoter-eGFP reporter, imaging; reporter expression induced with tamoxifen; inhibition, % at 2 µM; actives 0.9% (n = 130,000);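 active = inhibition above the mean plus 3 SD, with well images judged a real hit on visual review, cut at about 60% in these data, passing the limit was not always enough; inconclusive = inhibition over the cutoff but images rejected on review; inactive = inhibition not above the cutoff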
# GALR2 agonist = GALR2 (human) receptor agonism. actives 0.48% (n = 140,000). GALR2-expressing cells, agonist activation read-out. O43603. activation, %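 (tested at 5 µM)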. AID 803;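 active = above mean plus 3 SD of all compounds, about 5% in these data, not always enough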;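 also: 0% = vehicle buffer wells and 100% = reference agonist at full effect; tested in CHO reporter cells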
# RGS16-Gao = RGS16-Galphao interaction regulator (human) | O15492+P09471 | bead-based flow cytometry RGS16-Galphao binding, fluorescence; actives lie on both sides | binding response (% of control), % at 10 µM | actives 0.38% (n = 220,000);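 active = below 25% or above 175%, edge rows of some plates excepted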;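 also: Galphao activated by GDP with aluminum fluoride before binding; 100% = wells without compound and 0% = beads without RGS; some results beyond the cut were filed as inactive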
# PKD1 kinase inh = inhibitors of human PKD1 kinase | actives 0.056% (n = 200,000) | PKD1 kinase fluorescence polarization assay | inhibition, %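 (about 10 µM by stock and volumes)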 | Q15139;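 active = inhibition of 50% or more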;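 also: controls were vehicle for no effect and a reference inhibitor for full effect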
# Target sequence (Q15139 whole entry, looked up): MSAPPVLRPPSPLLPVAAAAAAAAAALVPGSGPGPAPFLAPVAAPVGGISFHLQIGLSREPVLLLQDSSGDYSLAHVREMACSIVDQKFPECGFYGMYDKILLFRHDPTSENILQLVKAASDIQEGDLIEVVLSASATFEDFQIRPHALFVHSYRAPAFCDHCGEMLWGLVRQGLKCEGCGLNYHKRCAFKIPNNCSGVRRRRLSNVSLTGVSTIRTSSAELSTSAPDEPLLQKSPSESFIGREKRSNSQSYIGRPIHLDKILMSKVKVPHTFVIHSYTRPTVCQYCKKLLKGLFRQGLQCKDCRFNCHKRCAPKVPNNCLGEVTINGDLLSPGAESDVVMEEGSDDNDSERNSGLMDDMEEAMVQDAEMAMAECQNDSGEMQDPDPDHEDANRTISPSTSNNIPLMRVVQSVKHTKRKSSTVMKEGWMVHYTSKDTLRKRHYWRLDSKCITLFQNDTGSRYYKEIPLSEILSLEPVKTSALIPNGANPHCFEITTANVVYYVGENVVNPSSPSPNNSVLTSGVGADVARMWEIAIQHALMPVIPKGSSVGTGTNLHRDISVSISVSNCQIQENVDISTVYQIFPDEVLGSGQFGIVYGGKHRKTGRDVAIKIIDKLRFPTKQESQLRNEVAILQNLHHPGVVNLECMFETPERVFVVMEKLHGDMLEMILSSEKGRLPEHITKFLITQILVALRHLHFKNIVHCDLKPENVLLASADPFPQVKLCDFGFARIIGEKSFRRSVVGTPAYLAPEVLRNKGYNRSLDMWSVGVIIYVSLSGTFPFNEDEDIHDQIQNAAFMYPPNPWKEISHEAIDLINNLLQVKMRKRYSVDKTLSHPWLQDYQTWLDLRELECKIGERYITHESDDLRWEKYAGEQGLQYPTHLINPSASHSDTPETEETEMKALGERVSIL
# Insulin prom inh cell count = recorded beside Insulin prom inh, whose call it bears; normalized cell count, %; measured here: cell count, toxicity; reference of the scale not given here;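 cells exposed to compound for 48 h; stained nuclei by imaging scaled within each plate; lower means fewer cells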
# HSV augment primary fold = recorded beside HSV augment, whose call it bears; fold increase; compound at 10 µM; measured here: primary screen fold increase 10 uM; tested in PC3 cells;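 GFP signal in the first replicate; 1 = infected wells without compound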
# Active calls of the source: *; i = inactive; ? = inconclusive; · = not tested or not shown; [ ] = dose if it differs, or a comment.
# Every second line gives: HSV augment	HSV augment primary fold	Insulin prom inh	Insulin prom inh cell count	GALR2 agonist	RGS16-Gao	PKD1 kinase inh
OC(CN1CCOCC1)CN(c1ccccc1)c1ccccc1 (stereo unspecified)
→ i	0.99	·	·	-2.1	108.4	-9.2
COc1ccc(C(CC(=O)NCc2ccccc2)C(C)C)cc1 (stereo unspecified)
→ i	1.01	·	·	·	99.2	·
CCOc1ccc(NC(=O)CC2C(=O)N(C)C(=S)N2Cc2ccc3c(c2)OCO3)cc1 (stereo unspecified)
→ i	0.84	·	·	-1.8	·	-8.4
O=C(COC(=O)c1cc[n+]([O-])cc1)Nc1ccc(Cl)cc1[N+](=O)[O-]
→ i	0.95	·	·	·	97.9	-2.9
CCOC(=O)c1ccc(NC(=O)CSc2nccn2C)cc1
→ i	0.99	28.6	45.9	-3.4	97.3	-7.4
COC(=O)CS(=O)(=O)c1nnc([C@H](Cc2ccccc2)NC(=O)OC(C)(C)C)o1
→ i	0.75	70.3*	14.8*	0.5	86.0	-6.9
CCCCCCCCC(=O)NNC(=O)c1c(O)c2ccccc2n(CCC)c1=O
→ i	1	0.0	96.1	·	103.2	-5.4
OC1CCCN(Cc2ccc3c(c2)Cc2ccccc2-3)C1 (stereo unspecified)
→ i	0.85	-36.4	88.0	-0.3	104.0	2.0
O=C1C(=O)c2c(C(=O)c3ccccc3)coc2-c2ccccc21
→ i	0.84	19.4	128.1	-1.9	85.3	-5.0
Cc1ccc(-c2csc3nc[nH]c(=S)c23)cc1C
→ i	0.87	·	·	-1.1	94.0	-6.0
CCOc1ccc(S(=O)(=O)N2CCCCC2)c2ccccc12
→ ·	·	3.2	60.2	-3.3	101.5	-4.1
CN(C)CCCNC(=S)N1CCn2c(nc3ccccc32)C1
→ i	0.89	20.0	103.1	-1.3	98.6	5.4
O=C1CC(NCc2ccccc2)C(=O)N1c1ccc(F)cc1 (stereo unspecified)
→ i	0.83	·	·	·	102.4	1.5
Cc1cc(C=C2C(=O)c3ccccc3C2=O)c(C)n1-c1ccc(C(=O)O)cc1
→ i	1.03	·	·	·	96.3	0.7
COc1cc(/C=N\NC(=O)Cn2nnc3ccccc32)cc(OC)c1OC
→ i	0.93	19.2	102.5	-4.3	99.8	-4.2
Cc1nn(-c2ccccc2)c(C)c1NC(=O)c1ccc(S(=O)(=O)N2CCCC2)cc1
→ i	0.72	·	·	-1.5	99.4	-5.5
O=C(CN1C(=O)NC2(CCOc3ccccc32)C1=O)Nc1ccc2c(c1)OCCO2 (stereo unspecified)
→ i	1.02	·	·	0.1	99.0	-8.9
O=C(C1CCN(S(=O)(=O)c2cccnc2)CC1)N1CCN(c2ccc(Cl)cc2)CC1
→ i	0.9	·	·	·	85.3	·
CC(=O)c1c(C)[nH]c(C(=O)OCC(=O)NCC(C)C)c1C
→ i	1.05	·	·	·	86.8	-2.3
COc1ccccc1NC(=O)c1cc(OC)c(OC)cc1[N+](=O)[O-]
→ i	0.99	25.6	100.6	·	102.9	5.6
CC(=O)n1cc([C@H]2C=C(C(=O)Nc3ccccc3)O[C@@H](OCCCCO)C2)c2ccccc21
→ i	0.93	·	·	·	99.1	0.7
COCCNC(=O)CN1CCC(NC(=O)Nc2ccc(C(F)(F)F)cc2)CC1
→ i	0.73	-27.0	115.4	-1.0	112.7	-2.0
CCN1CCN(C(=O)c2nn(-c3ccc(OC)cc3)c(=O)c3c2c2ccccc2n3C)CC1
→ i	0.86	22.2	114.9	-0.3	100.6	-4.7
Cc1[nH]c2c([N+](=O)[O-])cccc2c1C
→ i	1.06	·	·	·	99.5	·
CC(C)NC(=O)C(Sc1ccccc1)c1ccccc1 (stereo unspecified)
→ i	0.99	-23.9	184.4	-0.4	100.5	-9.7
CCc1ccc(OCc2nnc(SCC(=O)NCc3ccco3)o2)cc1
→ i	0.92	-83.3	92.1	-0.3	98.9	-2.5
Cc1noc(C)c1S(=O)(=O)Nc1ccc(C(=O)N2CCCCC2)cc1
→ i	0.86	19.2	110.5	-1.5	107.2	-6.6
Cc1ccc(S(=O)(=O)NC(C(=O)Oc2ccc3c(C)c(Cl)c(=O)oc3c2)c2ccccc2)cc1 (stereo unspecified)
→ i	0.99	14.3	100.8	0.4	96.2	-4.4
COC(=O)Cc1ccc(NC(=S)NCc2ccccc2OC)cc1
→ i	0.92	-71.4	60.8	·	73.5	0.4
COc1ccccc1CCNC(=O)Nc1cccc([N+](=O)[O-])c1
→ i	0.93	·	·	·	99.0	-5.5
C/C(=C\C#N)n1nc(C)cc1N
→ i	0.95	·	·	0.0	102.3	-4.6
CCOc1ccc(C2C(C#N)=C(N)SC(N)=C2C#N)cc1OCC
→ i	1.31	·	·	·	96.4	·
O=C(COC(=O)Cc1ccsc1)Nc1ccccc1
→ i	0.83	·	·	·	121.9	-2.1
CN1CCN(c2nc(Nc3ccc(O)cc3)nc3ccccc23)CC1
→ i	0.87	-26.7	114.6	·	101.4	-7.0
O=C(CN1CCN(C(c2ccccc2)c2ccccc2)CC1)N1CCOCC1
→ ·	·	·	·	-2.8	206.9	-4.3
O=C(Nc1nnc(CCN2CCCCC2)s1)c1ccccc1Cl
→ i	0.96	0.0	116.4	·	101.5	-4.8
OCCNc1nc2ccccc2nc1NCCO
→ i	1.3	·	·	·	99.8	·
COc1ccc(OC)c(/C=N/NC(=O)Cn2ccnc2C)c1
→ i	0.97	·	·	·	103.9	·
Cc1ccc(-c2noc(-c3ccccc3C(=O)NCc3ccco3)n2)cc1
→ i	1.41	·	·	·	87.9	·
O=C(CSc1ncnc2ccccc12)NCCCO
→ i	0.91	15.8	52.8	0.5	101.9	-10.5
Cc1noc(C)c1S(=O)(=O)NC1CCN(Cc2ccccc2)CC1
→ i	1.03	·	·	·	183.0*[activator]	-11.3
C/C(=N\NC(=O)c1ccccn1)c1ccc(Cl)cc1
→ i	0.89	·	·	·	109.1	·
O=C(O)c1ccc(-c2ccccc2)[nH]c1=O
→ i	0.85	·	·	·	106.4	·
CCOc1ccc(NC(=S)N2CCCCCC2)cc1
→ i	1.02	·	·	·	97.3	3.3
O=C(NCCCl)Nc1cc([N+](=O)[O-])ccc1Cl
→ i	1.04	·	·	·	100.8	-4.0
CNC(=O)c1nnn(Cc2ccccc2)c1NC(C)=O
→ i	0.88	9.5	140.1	-1.4	98.0	-4.7
COc1ccc(C(=O)CSc2ccc(-c3ccc(C)cc3)nn2)cc1
→ i	0.99	·	·	-0.8	56.3	6.5
CC(CCc1ccccc1)NC(=O)c1cccc([N+](=O)[O-])c1 (stereo unspecified)
→ i	0.99	·	·	-1.0	107.4	2.4
Cc1ccc(OCCSc2ncnc3sc(C)c(C)c23)cc1C
→ ·	·	23.3	137.6	-0.4	63.5	-13.2
Cc1ccc(NC(=O)COC(=O)[C@H](C)N2C(=O)C3CC=CCC3C2=O)cc1S(=O)(=O)N(C)C (stereo partly specified)
→ i	0.96	-16.7	29.7	·	73.2	6.1
Cc1ccc(N=Nc2ccc(O)c(P(=O)(c3ccccc3)c3ccccc3)c2)cc1
→ i	0.96	·	·	·	96.2	·
CCOC(=O)C1=C(N)c2ccccc2CC1C(C)C (stereo unspecified)
→ i	0.95	8.1	103.0	-1.6	87.9	-8.5
CN1CC=C2C(C#N)=C(N)C(C#N)(C#N)C(Cc3ccccc3)C2C1 (stereo unspecified)
→ ?	·	-52.6	90.9	0.8	95.6	8.1
O=C(CSc1ccc(Cl)cc1)Nc1nnc(-c2cccc([N+](=O)[O-])c2)s1
→ i	1	-30.0	117.7	0.8	99.5	-2.6
CCOc1ccccc1NC(=O)NS(=O)(=O)c1ccc(C)cc1
→ i	0.75	-21.4	137.3	0.2	92.9	-6.4
COc1ccccc1CNC(=O)COc1ccc(C)nc1[N+](=O)[O-]
→ i	0.98	-71.4	149.8	·	95.3	0.8
Cc1ccc2[nH]c(=O)c(COC(=O)c3cccs3)cc2c1
→ i	0.85	·	·	0.4	103.8	-11.1
O=S(=O)(Nc1ccc2c3c(cccc13)CC2)c1ccc(F)cc1
→ i	1.02	-39.3	73.8	-0.9	98.6	6.3
O=C(c1ccc(F)cc1)N1CCCC(C(=O)N2CCN(c3ccccc3)CC2)C1 (stereo unspecified)
→ i	0.93	·	·	·	107.9	·
O=S(=O)(NCc1ccc(Cl)cc1)c1cccc2cccnc12
→ i	0.88	·	·	·	89.4	·

# Next part
# Every second line gives: HSV augment	HSV augment primary fold	Insulin prom inh	Insulin prom inh cell count	GALR2 agonist	RGS16-Gao	PKD1 kinase inh
CC(C)n1c2ccccc2c2nnc(SCC(=O)Nc3ccccc3C(=O)O)nc21
→ i	0.9	-5.0	128.0	·	98.2	-8.4
CCOC(=O)C1(CC2CCCCO2)CCN(Cc2nccn2-c2cccc(C)c2)CC1 (stereo unspecified)
→ i	0.94	·	·	·	101.8	0.6
CSc1ccc(/C=C(/NC(=O)c2ccc(C)cc2)C(=O)Nc2cccc(C)c2)cc1
→ i	1.09	27.3	115.0	1.7	60.1	-4.0
CCOC(=O)C1(CC2CCCCO2)CCN(S(=O)(=O)c2c(C)nn(C)c2C)CC1 (stereo unspecified)
→ i	1.02	·	·	·	105.7	-13.2
COc1ccc2c(c1)OCC1=C2CCC2(C)C(=O)CC=C12 (stereo unspecified)
→ ·	·	-15.0	52.9	-1.4	65.9	-2.8
CC(NC(=O)c1cccc2ccccc12)c1ccc2c(c1)CCCC2 (stereo unspecified)
→ i	0.84	·	·	-1.7	53.5	-1.3
CCOC(=O)c1[nH]c2ccc(OC)cc2c1NC(=O)CN1CCSCC1
→ i	0.89	25.0	97.0	-2.3	103.8	-0.5
Cc1ccc(C(=O)CSc2nnc(COc3ccccc3)o2)cc1
→ i	1.02	2.4	142.6	·	100.3	2.3
CC(OC(=O)CCCc1nc2ccccc2s1)C(N)=O (stereo unspecified)
→ i	0.98	14.3	110.3	-3.9	95.1	-1.7
CC(C)CN1CCN(C2CCN(C(C)C)CC2)C(CCO)C1 (stereo unspecified)
→ i	1.19	·	·	·	99.7	7.6
CC(=O)Nc1ccc(C(=O)NCCCOC(C)C)cc1
→ i	0.92	·	·	·	68.9	5.7
COc1ccc(OC(=O)COc2ccc(C)cc2)cc1
→ i	0.76	·	·	·	86.2	4.0
Cc1cc(-n2nnc3ccccc32)nc2ccccc12
→ i	0.89	-6.1	85.0	-3.3	104.5	-3.0
CC(C)(C)Sc1ccccc1S(=O)(=O)C(C)(C)C
→ i	1.05	·	·	·	104.6	·
Cc1sc2nc(SCc3nc(-c4cccs4)no3)n(-c3ccccc3)c(=O)c2c1C
→ i	1.15	·	·	-1.0	102.4	-16.9
Cc1ccc(-n2cccc2/C=C2/C(=N)N3C(=NC2=O)SN=C3S(C)(=O)=O)cc1Cl
→ ?	·	·	·	-0.1	59.8	8.9
O=C(NNC(=O)c1ccc(Cl)cc1Cl)c1cccs1
→ i	0.96	·	·	·	100.1	11.7
COc1ccccc1C(=O)NC(=S)Nc1ccc(N2CCOCC2)c(Cl)c1
→ i	1.01	-14.3	91.8	·	98.2	1.8
CCCCOc1cccc(C(=O)NNC(=S)NC2CCCCC2)c1
→ i	1.04	·	·	-1.7	102.0	-1.9
C=CCNC(=O)c1ccc(Sc2ccccc2)c([N+](=O)[O-])c1
→ ·	·	-11.1	116.0	-2.3	97.3	-10.1
CC(=O)CC(=O)Nc1ncccn1
→ i	1.01	·	·	·	104.7	-8.0
CS(=O)(=O)N(CC(=O)Nc1ccc2c(c1)OCCO2)Cc1ccc(Cl)cc1
→ i	0.91	53.3	150.0	-1.3	65.5	-2.1
Cc1cccc(OCCSc2nc3c([nH]2)c(=N)ncn3Cc2ccccc2)c1
→ i	0.74	·	·	-2.2	·	-6.0
CCC(C)Nc1cc(C)nc2ncnn12 (stereo unspecified)
→ i	0.98	·	·	·	100.8	-8.7
CCCCCCC(=O)Nc1c2c(nc3ccccc13)N(C)CC2
→ i	1.08	·	·	0.7	124.4	0.4
CCC(C)(C)NC(=O)C(c1ccc(F)cc1)N(Cc1cccc(OC)c1)C(=O)c1cnccn1 (stereo unspecified)
→ i	0.84	·	·	·	104.0	-11.1
O=C(/C=C/c1ccco1)Nc1nc(-c2ccc(F)c(F)c2)cs1
→ i	1.04	·	·	·	102.5	·
CC(C)c1ccc(/C=N/N2CCCCC2)cc1
→ i	1.06	-69.2	155.1	·	102.0	0.1
Clc1ccccc1OCCCCn1ccnc1
→ i	0.89	31.6	69.3	1.7	150.4	-5.1

# Screening results deposited in PubChem by several laboratories.
